Compound activity as filed in PubChem BioAssay.
HIV TAR-Tat: HIV-1 TAR-Tat binding disruption. z-score (no concentration beside the values). AID 1259389. 100,000 tested, 0.6% active. HIV-1 TAR RNA, Tat peptide displacement FRET; hits give high values;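 further: score is relative to mean and SD of negative controls; some compounds called inactive have numbers as strong as hits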
CDC25B CDK2 inh: human CDC25B-CDK2/CyclinA binding inhibition. HTRF CDC25B-CDK2/CyclinA binding, anti-His/anti-Flag; hits give high values. z-score (no concentration beside the values). 94,000 tested, 0.72% active. AID 1259370;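 further: score is relative to mean and SD of negative controls; strong numbers were not always called active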
Numbers without * were called inactive; . = no result given.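 How the source made its calls: active means z-score from 3 up in half or more of its runs; inactive means the rest.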

SMILES	HIV TAR-Tat	CDC25B CDK2 inh
O=C(NCc1ccco1)c1cc2n(n1)C(C(F)(F)F)CC(c1ccc(Br)cc1)N2 (centres undefined)	1.9	-2.1
CCOC(=O)C(=CNc1cc(C(F)(F)F)ccc1NCc1ccccc1)C(=O)OCC	.	-3.1
COc1ccccc1-n1c(C)c(C(=O)O)c2cc(OC)c3ccccc3c21	0.89	-0.59
COc1cc(Nc2cc(C)nc3nc(C)nn23)c(C(=O)O)cc1OC	-0.66	-0.28
Cc1ccc(CNc2nc3ccccc3c3nc(CCc4c(C)n[nH]c4C)nn23)cc1	-0.81	-0.87
O=S(=O)(NCCc1csc2nc(-c3ccc(F)cc3)nn12)c1cc(F)ccc1F	0.43	.
CCCn1c(C)cc(C)c(C#N)c1=O	0.78	1
CCOC(=O)c1c(NC(=O)CSc2nnc3c4ccccc4n(CC)c3n2)sc2c1CCC2	1.6	-2.5
Cc1c(CC(=O)Nc2ccccc2)sc2ccccc12	.	-2.6
CCOc1ccc(C2c3c(-c4ccccc4O)n[nH]c3C(=O)N2CC2CCCO2)cc1OC (centres undefined)	1.8	-0.34
CCOC(=O)C1CCN(c2c(N3CCCC3)c(=O)c2=O)CC1	1.3	-1.9
Cn1c2c(c3ccccc31)/C(=N/O)CCC2	.	-2.4
COc1ccccc1C1CC(=O)N2CN(Cc3ccccc3)CSC2=C1C#N (centres undefined)	0.76	5.3*
COC(=O)COc1cccc(C2Nc3ccccc3S(=O)(=O)N2Cc2ccccc2)c1 (centres undefined)	.	-1.1
CCn1c(Sc2c(-c3ccccc3)c3ccc(Cl)cc3[nH]c2=O)nnc1-c1nn(C)cc1N	.	-4.9

Ordered by heavy-atom count (smallest number first): some entries from above
SMILES	HIV TAR-Tat	CDC25B CDK2 inh
CCCn1c(C)cc(C)c(C#N)c1=O	0.78	1
Cc1c(CC(=O)Nc2ccccc2)sc2ccccc12	.	-2.6
COc1cc(Nc2cc(C)nc3nc(C)nn23)c(C(=O)O)cc1OC	-0.66	-0.28
O=S(=O)(NCCc1csc2nc(-c3ccc(F)cc3)nn12)c1cc(F)ccc1F	0.43	.
CCn1c(Sc2c(-c3ccccc3)c3ccc(Cl)cc3[nH]c2=O)nnc1-c1nn(C)cc1N	.	-4.9

More records follow:
SMILES	HIV TAR-Tat	CDC25B CDK2 inh
CC1Sc2ccc(S(=O)(=O)N3CCC(C(=O)N4CCc5ccccc54)CC3)cc2NC1=O (centres undefined)	-1.8	.
CCN(CC)CCNC(=O)Cn1cnc2sc(C)c(S(=O)(=O)N3CC(C)CC(C)C3)c2c1=O (centres undefined)	-2.2	-1.4
Cn1c(SCCO)nc2c(c1=O)C1(CCCCC1)Cc1ccccc1-2	1.3	-0.6
CC(C)NC(=O)c1ccc(-n2ccc3ccccc32)s1	1.6	.
CC1CSc2ccc(S(=O)(=O)NCCc3cccs3)cc2NC1=O (centres undefined)	0.08	.
COc1cc([C@@H]2c3cc4c(cc3[C@H](O)[C@H]3COC(=O)[C@H]23)OCO4)cc(OC)c1OC	3	.
O=C(Nc1ccc2c(c1)OCCO2)NC(c1ccccc1)c1nnc(-c2ccc(Cl)cc2)o1 (centres undefined)	1.2	.
Cc1nc2c(c(C)c1CCC(=O)NCCc1ccco1)c(=O)n(C)c(=O)n2C	1.8	-1.6
COc1ccccc1NS(=O)(=O)c1cc2c3c(c1)CC(=O)N3CCC2	2.1	.
Cc1ccc2nc(-c3ccc(-c4ccccc4)s3)cn2c1	.	-1
COCCOC(=O)C1=C(C)NC2=C(C(=O)C(C(=O)OC)C(C)C2)C1c1coc2ccccc2c1=O (centres undefined)	0.21	-2
O=C1CCN(C(=O)C2CC2)c2ccccc2N1	0.52	-1.3
CC1(C)O[C@@H]2CC3C4C[C@H](F)C5=CC(=O)CC[C@]5(C)C4[C@@H](O)C[C@]3(C)[C@]2(C(=O)CO)O1 (some centres undefined)	1.9	.
Cc1ccc2cc(CCNC(=O)C3CCCC3)c(=O)[nH]c2c1C	.	-1.7
COc1ccc(C2c3c(-c4ccccc4O)n[nH]c3C(=O)N2CCO)cc1 (centres undefined)	0.7	0.64
Cc1cn(CCC(=O)NC2CCN(Cc3ccccc3)CC2)c2ccccc12	.	-2
Cc1ccc(C(=O)c2oc3ccccc3c2NC(=O)c2csnn2)cc1F	0.38	-1.9
Fc1ccccc1NCc1ccc2nccnc2c1	-0.2	.
CCC(=O)N1c2ccccc2CC1C(=O)N1CCN(CC)CC1 (centres undefined)	1.1	.
CSc1nc(=O)n(-c2ccc(C)cc2)c2c1CCC2	-0.15	-1.3
CC(C)Cn1c(=O)c2c(nc3n2CCS3)n(C)c1=O	0.14	-1
CC(=O)N1c2ccc(S(=O)(=O)N(C)CC(=O)N3CC(C)CC(C)C3)cc2CC1C (centres undefined)	-0.64	.
C=CCN1C(=O)C2(/C(=C(/O)c3ccc(OCC)cc3)C(=O)C(=O)N2CCN(C)C)c2ccccc21 (centres undefined)	0.86	-0.05
Cc1ccc(-n2c(C)c(C)c3c2ncn2nc(-c4cccnc4)nc32)cc1C	1.1	-2
OCC1(CO)CCCC(CO)(CO)C1O	.	-1.6
CCOC(=O)c1[nH]c(C)c(C(=O)NC2CCC(C)CC2)c1C (centres undefined)	1.9	-0.23
CCCn1c(CN2CC(C)OC(C)C2)nc2c1c(=O)n(C)c(=O)n2C (centres undefined)	.	0.12
c1ccc2c(c1)nc(Nc1ccc3c(c1)OCCO3)c1nnnn12	-4.4	-1.1
O=C1CSc2ccc(S(=O)(=O)N3CCOCC3)cc2N1Cc1ccc(F)cc1Cl	-0.98	.
Cc1ncc(CO)c2cc(C3=NS(=O)(=O)c4ccccc4N3)c(=O)oc12	-0.12	-1.8

Gathered by group, the entries above containing a Cl atom (three)
SMILES	HIV TAR-Tat	CDC25B CDK2 inh
CCn1c(Sc2c(-c3ccccc3)c3ccc(Cl)cc3[nH]c2=O)nnc1-c1nn(C)cc1N	.	-4.9
O=C(Nc1ccc2c(c1)OCCO2)NC(c1ccccc1)c1nnc(-c2ccc(Cl)cc2)o1 (centres undefined)	1.2	.
O=C1CSc2ccc(S(=O)(=O)N3CCOCC3)cc2N1Cc1ccc(F)cc1Cl	-0.98	.

(cont.)
SMILES	HIV TAR-Tat	CDC25B CDK2 inh
COc1cccc(-c2noc(NCc3ccc4c(c3)OCO4)n2)c1	0.66	.
Cc1nn(C(C)C(=O)NC2CCCC2)c2ccccc12 (centres undefined)	0.3	-1.8
CC(=O)c1c(C)[nH]c(C(=O)NC2CCCCC2C)c1C (centres undefined)	.	-1.5
CCOC(=O)c1noc2nc(C)nc(N3CCN(c4ncccn4)CC3)c12	1	.
CCN1CCCC1CNc1nc2ccc(C(=O)c3ccccc3)cc2n2c(C)nnc12 (centres undefined)	-0.54	.
COc1ccc(S(=O)(=O)C(CNC(=O)C2CC2)c2cccs2)cc1 (centres undefined)	0.19	.
Cc1sc2ncnc(Oc3cccnc3)c2c1C	0.76	.
O=C(CC1Oc2ccccc2NC1=O)NCCN1CCOCC1 (centres undefined)	-1.2	-4.3
COc1ccc(NS(=O)(=O)c2ccc3c(c2)OCC(C(=O)N2CCOCC2)O3)cc1OC (centres undefined)	1.2	.
O=C(O)c1cc(-c2ccccn2)nc2ccc(Br)cc12	2.3	.
O=C(Oc1cncc(Cl)c1)c1cccs1	.	-2.7
CC(C(=O)NC1CCCC1)N1Cc2ccccc2C1=O (centres undefined)	-0.68	.
O=C(c1ccccc1)c1nn2c(nc(=O)c3ccc(Cl)cc32)s1	.	-0.8
CSc1cccc(NC(=O)Cn2nc(C)c(Oc3ccccc3)c2C)c1	.	-0.85
CC(C)N(Cc1nc(-c2ccc(Cl)cc2)no1)C(=O)NC1CCCCC1	1.6	-0.61

Some of the entries so far, with bars between the fields:
canonical_smiles | HIV TAR-Tat | CDC25B CDK2 inh
CSc1cccc(NC(=O)Cn2nc(C)c(Oc3ccccc3)c2C)c1 | . | -0.85
CCN1CCCC1CNc1nc2ccc(C(=O)c3ccccc3)cc2n2c(C)nnc12 (centres undefined) | -0.54 | .

Going on with the list.
SMILES	HIV TAR-Tat	CDC25B CDK2 inh
CCOc1cc(C2C(C(=O)OC(C)C)=C(C)NC(C)=C2C(=O)OC(C)C)ccc1O	.	-0.21
CN1C(=O)CSc2ccc(NC(=O)N3CCOCC3)cc21	-0.1	-1.4
CC1CCC(NC(=O)CCS(=O)(=O)c2ccc3c(c2)CCN3C(=O)C2CC2)CC1 (centres undefined)	0.09	.
Cc1[nH]c2[nH]n(-c3ccccc3)c(=O)c2c(=O)c1Cc1ccccc1Cl	-6.8	-4.1
COc1cc(C2NC(C(=O)O)CS2)ccc1OCc1ccc(Cl)cc1 (centres undefined)	1.7	-0.08
CSc1scc2c1-c1nn(C(=O)c3ccc(Cl)cc3)cc1CC2	.	-1.4
O=c1cc(CN2CCc3ccccc3C2)c2ccccc2[nH]1	0.59	-0.99
O=C(O)Cn1cnc2c(-c3ccc(Br)cc3)noc2c1=O	-1.2	-0.07
CC1(C)CC(C(N)=S)CCS1 (centres undefined)	.	-1.9
COc1ccc(-c2noc(COc3ccc(Cl)c(C)c3)n2)cc1	0.42	0.5
O=C1CSC(=O)N1c1ccc(OC(F)(F)F)cc1	.	-0.63
CC1=C(C(=O)OCC(C)C)C(c2ccccc2F)C2=C(CC(c3ccccc3)CC2=O)N1 (centres undefined)	-0.48	-3.2
CCN1CCCC1CNC(=O)CN1C(=O)COc2ccc(S(=O)(=O)N3CCOCC3)cc21 (centres undefined)	.	1.2
CCC1CN(C(=O)N2CCC(C(=O)N3CCc4ccccc4C3)CC2)c2ccccc2O1 (centres undefined)	1.3	.
COc1ccc(NC(=O)c2cc3c(s2)-c2ccccc2S(=O)(=O)C3)c(OC)c1	0.27	-0.76
Cn1nc(NC(=O)Cn2ccc(C(F)(F)F)n2)c2ccccc21	.	-1.6
O=C(c1cc(-c2ccc3c(c2)OCCO3)on1)N(Cc1cccc(Cl)c1)C1CCS(=O)(=O)C1 (centres undefined)	2.9	-1.7
CCCCOc1ccccc1C1C=C(C(=O)O)Nc2ncnn21 (centres undefined)	1.3	0.01
CC(C)NC(=O)NC(c1ccccc1)c1nnc(-c2ccccc2Cl)o1 (centres undefined)	1.1	.
CC1CCCN(S(=O)(=O)c2ccc(CN3C(=O)c4cccnc4C3=O)cc2)C1 (centres undefined)	0.77	.
O=C(CCCN1C(=O)c2cccnc2Oc2ccc(Cl)cc21)NCCC1=CCCCC1	1.7	.
CCc1nc2ccccc2nc1N1CCCC1	.	-1.8
Cn1c(=O)c2ccc(C(=O)NC3CCCCC3)cc2n2c(=O)[nH]nc12	0.17	-2.5
CCOC(=O)c1c(NC(=O)Cn2nc(C(F)(F)F)cc2C)sc2c1CCC(C)C2 (centres undefined)	2.1	.
O=C(NCCC1=CCCCC1)C1CCN(c2nn3c(=O)c4c(nc3s2)CCCC4)CC1	3.1	.
Nc1ccccc1C(=O)NCCCNC(=O)c1ccccc1N	.	-0.66
Cc1cc(NC(=O)CN2C(=O)C(C)(C)c3ccccc32)no1	0.44	.
O=C(Cn1c(=O)sc2ccccc21)Nc1cc(F)ccc1F	-1.3	-0.36
Cc1ccc(C(=O)COC(=O)CCC(=O)Nc2ccc(C(=O)OCC(C)C)cc2)cc1[N+](=O)[O-]	.	-6
CS(=O)(=O)CCC(C(=O)N1CCN(c2ccc(Cl)cc2)CC1)N1Cc2ccccc2C1=O (centres undefined)	1.1	.
Cc1ccc(NNC(=O)c2ccc(Cl)cc2)nn1	.	-2.3
CCC(C)C1NC(=S)N(Cc2ccccc2)C1=O (centres undefined)	.	-1.1
Cc1nn(S(=O)(=O)c2ccc3c(c2)CCCC3)c(C)c1S(=O)(=O)N1CCC(C)CC1	-0.23	.
CC(=O)Oc1c2c(c[n+](C)c1C)COC(C)OC2 (centres undefined)	.	-2.3
Cc1ccc(N2C(=O)c3c(C)nc4ccccc4c3C2=O)cc1C	0.86	3.2
COc1cc(C(Nc2cc(C)ccn2)c2ccc3cccnc3c2O)ccc1O (centres undefined)	2.5	-1.5
Cc1ccc(S(=O)(=O)c2[nH]c(-c3ccccc3)nc2SCC(=O)O)cc1	-1.5	-0.18
CN(CC(=O)N1CCc2ccccc21)S(=O)(=O)c1cccc2cccnc12	.	-1.6
Cc1ccc2nc(C)c(Cc3nnc(SC(C)C(=O)Nc4ccccc4)n3C)c(=O)n2c1 (centres undefined)	1.9	0.48
Cc1nn(-c2ccccn2)c2c1C(=O)CC(C)(C)C2Br (centres undefined)	.	-0.13
COc1ccc(S(=O)(=O)n2nc(-c3ccc(OC)cc3OC)cc2N)cc1	0.96	-1.5
CCN(CC)C(=O)Cn1cnc2sc(C(=O)N3CCN(c4ccccc4F)CC3)c(C)c2c1=O	.	-1.2
CCC(CC)C(=O)NCCc1cc2ccc(OC)cc2[nH]c1=O	.	-1.9
COCCNc1oc2c(c1-c1ccc(F)cc1)c(=O)oc1ccc(C)cc12	0.86	.
CC(=O)N1CCOc2ccc(S(=O)(=O)N3CCC(C)CC3)cc21	1.3	-1.5
O=C(Nc1ccc(S(=O)(=O)N2CCc3ccccc32)cc1)c1ccco1	0.63	0.32
Cc1ccc(/C=c2\sc3nc4ccccc4n3c2=O)o1	.	-0.79
O=C(CCCc1nnc2n3nc(-c4ccccc4)nc3c3ccccc3n12)N1CCc2ccccc2C1	0.09	-0.64
CC(C)c1ccc(NC(=O)C2C3C=CC4(O3)C2C(=O)N(C2CC2)C4C(=O)NC2CCCCC2C)cc1 (centres undefined)	0.46	0.56
CCCCc1nnc2sc(NC(=O)C3CCCCC3)nn12	1.6	-3.7
CC1CC(C)CN(c2nc(Nc3ccccc3)c3cnn(C)c3n2)C1 (centres undefined)	1	.

An excerpt of these results, as labelled records.
Structure: C=CCN1C(=O)C2(/C(=C(/O)c3ccc(OCC)cc3)C(=O)C(=O)N2CCN(C)C)c2ccccc21 (centres undefined)
  HIV TAR-Tat: 0.86; CDC25B CDK2 inh: -0.05
Structure: Cc1ccc(-n2c(C)c(C)c3c2ncn2nc(-c4cccnc4)nc32)cc1C
  HIV TAR-Tat: 1.1; CDC25B CDK2 inh: -2
Structure: OCC1(CO)CCCC(CO)(CO)C1O
  HIV TAR-Tat: .; CDC25B CDK2 inh: -1.6
Structure: CCOC(=O)c1[nH]c(C)c(C(=O)NC2CCC(C)CC2)c1C (centres undefined)
  HIV TAR-Tat: 1.9; CDC25B CDK2 inh: -0.23
